Mtb H37Rv = Mycobacterium tuberculosis H37Rv growth inhibition, putative kinase inhibitor library, confirmatory dose response (AID 2842) | M. tuberculosis H37Rv growth inhibition; higher % means a stronger effect; some inactives read as strong as hits | one-dose inhibition, % at 10 µg/mL; IC90 in µg/mL for titrated hits | hit rate 5.2% among 24,000;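 active means confirmed in a dose series; about a fifth of its hits are not listed in these tables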;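 further: bacteria incubated one week before Alamar blue readout; 0% = bacteria only wells and 100% = bacteria with high antibiotic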
* marks the source's active call; other numbers are inactive results. Some of the compounds tested. The share of hits here may be higher or lower than overall.

| Molecule | Mtb H37Rv |
| --- | --- |
| CCNc1nc2c(c(=O)[nH]c(=O)n2C)n1Cc1cccc(Br)c1 | 5% |
| COc1ccc(C(=O)CSc2nnnn2-c2cccc(C)c2)cc1 | 9% |
| Cn1c(=O)[nH]c(=O)c2c1[nH]c(=S)n2CC(O)COc1ccc2ccccc2c1 (stereo not drawn) | -10% |
| CNC(=O)COc1cccc2c1CCNC2=O | -10% |
| CN(C(=O)CSc1nc(N)c(NC(=O)c2ccccc2)c(=O)[nH]1)c1ccccc1 | 0% |
| CCN1CCc2c(sc(NC(=O)c3ccccc3)c2-c2nc3ccccc3s2)C1 | 0.73µg/mL* |
| CCOc1ccc(-c2c(C#N)c(N)nc3sc(C(N)=O)c(N)c23)cc1 | -2% |
| Cc1ccc2cc(CCNC(=O)c3ccc(Cl)cc3)c(=O)[nH]c2c1C | 1% |
| Cn1c(=O)c2c(SCc3ccc(Br)cc3)nc(-c3cccs3)nc2n(C)c1=O | -8% |
| NC(=O)CSc1n[nH]c(-c2ccco2)n1 | 7% |
| O=C(NCc1ccc(Cl)cc1)NC1CC(=O)N(c2cccc(F)c2)C1 (stereo not drawn) | 4% |
| Cc1cc(C(=O)Nc2ncc(Cc3ccccc3)s2)c(C)o1 | 78% |
| CCOc1ccc(NC(=O)Cn2c(Nc3ccc(OCC)cc3)nc3c2c(=O)[nH]c(=O)n3C)cc1 | -18% |
| Cc1ccc(C)c(-c2nnc(NC(=O)c3nc4ccccc4s3)o2)c1 | 31% |
| COc1ccc(C(=O)Nc2sc3c(c2C(N)=O)CC(C)(C)NC3(C)C)cc1OC | -1% |
| Cc1nc2ccc(/C=N/NC(=O)c3cc4ccccc4cc3O)cc2s1 | 24% |
| COc1cc2nc(NC(=O)c3ccco3)sc2cc1OC | -8% |
| COc1ccc(N2CC(NC(=O)NCc3ccccc3)CC2=O)cc1 (stereo not drawn) | 12% |
| Cc1cccc(-n2ncc3c(=O)n(CC(=O)Nc4ccc(C(N)=O)cc4)cnc32)c1C | 0% |
| COc1ccc(OC)c(NC(=O)c2oc3ccccc3c2NC(=O)Cc2ccccc2)c1 | -10% |
| COC(=O)c1ccc2nc(NC(=O)/C=C/c3cccs3)sc2c1 | -1% |
| Oc1c(C=C2N=c3ccccc3=N2)sc(=S)n1Nc1ccccc1 | 63% |
| COc1ccc(C(=O)Nc2sc3c(c2C(N)=O)CCN(C)C3)c(OC)c1 | 4% |
| CCOC(=O)CSc1nc2c(c(=O)[nH]c(=O)n2C)n1Cc1cccc(C)c1 | 5% |
| Fc1ccc2nc(Nc3nc(-c4nc5ccccc5s4)cs3)sc2c1 | 40% |
| COc1ccc(S(=O)(=O)c2cn(Cc3ccccc3C)c3ccc(F)cc3c2=O)cc1 | 0% |
| COc1ccc(CC2SC(=N)N=C2N)cc1 (stereo not drawn) | 12% |
| Fc1ccc2nc(Nc3nnc(-c4ccccc4Cl)o3)sc2c1 | 7% |
| NC(=O)c1oc2ccccc2c1NC(=O)CCSc1ccccc1 | -7% |
| O=c1[nH]c2ccc(Cl)cc2c(-c2ccccc2)c1CNS(=O)(=O)c1ccccc1 | 18% |
| CCOC(=O)c1c[nH]c2ccc(C(C)=O)cc2c1=O | -1% |
| CCOc1ccc(C(=O)Nc2cc3c4c(c2)C(C)C(=O)N4CCC3)cc1 (stereo not drawn) | 1% |
| COc1ccc(/C=C/C(=O)O)cc1S(=O)(=O)NCc1ccc2c(c1)OCO2 | 0% |
| CCc1nnc(NC(=O)CC2CCS(=O)(=O)C2)s1 (stereo not drawn) | -3% |
| COc1ccc(-c2nc(N)nc(C)c2-c2ccc3c(c2)OCCO3)c(O)c1 | -4% |
| CCOC(=O)c1cc([N+](=O)[O-])sc1NC(=O)CC | 4% |
| COc1ccccc1OCC(=O)Nc1ccc(S(=O)(=O)Nc2cc(C)on2)cc1 | -20% |
| CC(C)N1CCc2c(sc(NC(=O)c3ccc(Oc4ccccc4)cc3)c2C(N)=O)C1 | 13µg/mL* |
| Cc1nnc(NC(=O)C(C)Sc2ccc(Cl)cc2)s1 (stereo not drawn) | 15% |
| O=C(Nc1c(C(=O)Nc2ccc3c(c2)OCCO3)oc2ccccc12)c1ccc(F)c(F)c1 | -6% |
| CCOc1ccc(-c2nnc3c4cc(OC)ccc4n(Cc4cccc(C)c4)cc2-3)cc1 | -8% |
| O=C(Nc1nc(-c2cc3ccccc3oc2=O)cs1)c1ccc(-c2nc3ccccc3s2)s1 | 18% |
| COc1ccc(C(=O)Nc2nc(CC(=O)NCc3ccncc3)cs2)cc1OC | -15% |
| CCOC(=O)N1CCc2c(sc(NC(=O)c3nc4ccccc4s3)c2C(N)=O)C1 | 3.5µg/mL* |
| CC(=O)c1sc(NC(=O)c2ccc(Cc3ccccc3)cc2)nc1C | 9% |
| O=C1Nc2ccc(S(=O)(=O)N3CCOCC3)c3cccc1c23 | 0% |
| COC(=O)c1ccc(C(=O)Nc2nc3ccc4sc(C)nc4c3s2)cc1 | -1% |
| Nc1nc(SCC(=O)NC2CCCCC2)[nH]c(=O)c1NC(=O)c1ccco1 | -7% |
| COc1ccc2sc(Nc3ccccc3F)nc2c1 | 41% |
| O=C(CSc1ccc(-c2ccc3c(c2)OCO3)nn1)N1CCc2ccccc21 | -11% |
| CCc1cccc(OCC(O)Cn2c(NCCC(C)C)nc3c2c(=O)[nH]c(=O)n3C)c1 (stereo not drawn) | 3% |
| CCOC(=O)c1cc([N+](=O)[O-])sc1NC(=O)c1ccc(S(=O)(=O)N2CCCCC2)cc1 | -11% |
| COc1ccc(CCC(=O)Nc2cccc(-c3ccc(=O)n(C)n3)c2)cc1 | 4% |
| O=C(CS(=O)(=O)c1c[nH]c2ccccc12)Nc1ccc(Br)cc1 | 11% |
| CC(Sc1ccccc1)C(=O)Nc1nnc(-c2ccc(F)cc2)s1 (stereo not drawn) | 1% |
| CCOc1ccc(NC(=O)c2cccc(Nc3cnc4ccccc4n3)c2)cc1 | 66% |
| NC(=O)c1ccc(NC(=O)c2c[nH]c(=O)n(-c3ccc(F)cc3)c2=O)cc1 | 2% |
| CCOc1ccc(C(=O)Nc2c3c(nn2-c2ccc([N+](=O)[O-])cc2)CSC3)cc1 | -4% |
| Nc1nc(SCc2cccnc2)[nH]c(=O)c1NC(=O)c1ccc(F)c(F)c1 | 0% |
| COc1ccc(C(CNS(=O)(=O)c2ccc([N+](=O)[O-])cc2)N2CCN(C)CC2)cc1 (stereo not drawn) | -11% |

The closing five compounds of the part above are carried over, then new ones follow.
| Molecule | Mtb H37Rv |
| --- | --- |
| CCOc1ccc(NC(=O)c2cccc(Nc3cnc4ccccc4n3)c2)cc1 | 66% |
| NC(=O)c1ccc(NC(=O)c2c[nH]c(=O)n(-c3ccc(F)cc3)c2=O)cc1 | 2% |
| CCOc1ccc(C(=O)Nc2c3c(nn2-c2ccc([N+](=O)[O-])cc2)CSC3)cc1 | -4% |
| Nc1nc(SCc2cccnc2)[nH]c(=O)c1NC(=O)c1ccc(F)c(F)c1 | 0% |
| COc1ccc(C(CNS(=O)(=O)c2ccc([N+](=O)[O-])cc2)N2CCN(C)CC2)cc1 (stereo not drawn) | -11% |
| O=C(COc1ccc2ccccc2c1)Nc1c2c(nn1-c1ccc(Cl)cc1)CSC2 | -4% |
| COc1ccc(CCNC(=O)C(=O)NCC(c2ccc(C)cc2)N2CCN(C)CC2)cc1 (stereo not drawn) | -6% |
| CCOC(=O)C1CCN(C(c2ccc(C)cc2)c2sc3nc(C)nn3c2O)CC1 (stereo not drawn) | -3% |
| O=C(N/N=C/c1ccco1)c1cc(-c2ccco2)[nH]n1 | -3% |
| CCOC(=O)N1CCN(C(=O)CSc2ccc3nnc(-c4ccc(F)cc4)n3n2)CC1 | -13% |
| CCOC(=O)c1nn(-c2ccc(C)cc2)c(=O)c2c(NC(=O)c3ccc(OCC)c(OCC)c3)scc12 | 4% |
| Cc1ccc(NC(=O)CSc2ccc3nnc(-c4ccc(F)cc4)n3n2)cc1 | 5% |
| CCCn1c(N/N=C/c2ccncc2)nc2c1c(=O)[nH]c(=O)n2C | -5% |
| CC(=O)c1ccc(NC(=O)c2sc3nc(C)cc(C)c3c2N)cc1 | 15% |
| N#CC1=C(S)N(c2ccc(F)cc2)C(c2ccco2)NC1=O (stereo not drawn) | 25% |
| Cc1ccc(-c2nnc(NC(=O)c3nc4ccccc4s3)o2)c(C)c1 | 1.8µg/mL* |
| CCN(CC)c1ccc(NC(=O)/C(C#N)=C/c2ccc(OC)cc2)cc1 | -2% |
| COc1ccc(OC)c2[nH]c(=O)c(CCNC(=O)c3ccc(S(=O)(=O)N4CCOCC4)cc3)cc12 | -4% |
| Cc1c(Cl)cccc1NS(=O)(=O)c1cc2c3c(c1)CCN3C(=O)CC2 | -4% |
| NC(=O)c1c(NC(=O)c2ccc(Cl)cc2Cl)sc2c1CCCCC2 | -3% |
| CC(C)c1ccc(S(=O)(=O)c2cn(Cc3ccccc3)c3ccc(F)cc3c2=O)cc1 | 0% |
| O=C(Nc1ccc(F)c(Cl)c1)c1oc2ccccc2c1NC(=O)c1cc2ccccc2oc1=O | -4% |
| Cn1c(/C(C#N)=C(\O)c2ccccc2)nc2ccccc21 | 68% |
| Cc1ccccc1CSc1ccc2nnc(-c3cccs3)n2n1 | 0% |
| C=CCOCC(O)Cn1c(NC2CCCCC2)nc2c1c(=O)[nH]c(=O)n2C (stereo not drawn) | -14% |
| COc1cc2c3nnc(-c4ccc(C)cc4)c-3cn(Cc3ccc(Cl)cc3)c2cc1OC | 4.8µg/mL* |
| Nc1nc(SCC(=O)c2ccccc2)[nH]c(=O)c1NC(=O)c1ccccc1F | 1% |
| O=C(c1cccc(Nc2nc(-c3ccccc3)c3cc(Cl)ccc3n2)c1)N1CCOCC1 | 6% |
| COc1ccc(C(=O)CSC2=C(C#N)C(c3ccco3)C(C(=O)Nc3ccccc3C)=C(C)N2)cc1 (stereo not drawn) | -2% |
| Cc1ccc(/C=C/c2nc3ccccc3[nH]c2=O)cc1 | 13% |
| O=C(O)c1ccc(NC(=O)c2cc3cc(Br)ccc3oc2=O)cc1 | 7% |
| O=C(O)CCN1C(=O)/C(=C\c2ccc(OC(F)F)cc2)SC1=S | -23% |
| Cc1ccc(S(=O)(=O)NCc2nnnn2-c2cccc(F)c2)cc1 | -7% |
| CCOC(=O)c1nn(-c2ccc(C)cc2)c(=O)c2c(NC(=O)Cc3ccc(Cl)cc3)scc12 | 2% |
| CCC(=O)N1N=C(c2ccc(NS(=O)(=O)CC)cc2)CC1c1ccco1 (stereo not drawn) | 11% |
| CC(C)c1nnc(NC(=O)Cc2cccs2)s1 | -2% |
| Cc1ccc(Cn2cc3c(-c4ccc(C)c(C)c4)nnc-3c3cc4c(cc32)OCCO4)cc1 | 12µg/mL* |
| COc1ccc(OC)c(NC(=O)c2oc3ccccc3c2NC(=O)c2ccccc2)c1 | -7% |
| Cc1cc(C)cc(NC(=O)CSc2nc3c([nH]c4ccccc43)c(=O)n2-c2cccc(C(F)(F)F)c2)c1 | 18% |
| CCOC(=O)c1nn(-c2ccc(F)cc2)c(=O)c2c(NC(=O)c3cc([N+](=O)[O-])ccc3Cl)scc12 | 4% |
| CC(=O)c1sc(NC(=O)c2cccc(Oc3ccccc3)c2)nc1-c1ccccc1 | 12% |
| CCOC(=O)N1CCN(c2nc3c(c(=O)n(C)c(=O)n3C)n2CCSc2nnc(C)s2)CC1 | -18% |
| Cc1ccc(C)c(-n2c(CNC(=O)c3ccccc3C(F)(F)F)nnc2SCC(=O)Nc2nnc(C)s2)c1 | 1% |
| CC1C(=O)N2CCCc3cc(NC(=O)C(=O)NCCN4CCOCC4)cc1c32 (stereo not drawn) | 3% |
| Cc1ccc(-n2c(SCC(=O)N3CCOCC3)nc3c([nH]c4ccccc43)c2=O)cc1 | 2% |
| O=C(Nc1cc(Cl)cc(Cl)c1)c1ccc(S(=O)(=O)N2CCCCCC2)cc1 | 1% |
| CCOc1ccccc1NC(=O)CSc1ncnc2c1nnn2-c1ccc(OC)cc1 | 1% |
| CCn1cc(C(=O)Nc2ccc(C)c(F)c2)c2nn(-c3ccccc3)c(=O)c-2c1 | 2% |
| COc1cccc2sc(N3CCOCC3)nc12 | 3% |
| Cc1ccc(CNC(=O)CN2N=NC3C(=O)N(c4ccc(C)c(Cl)c4)C(=O)C32)cc1 (stereo not drawn) | -8% |
| O=C(Nc1nnc(-c2cccs2)o1)c1cc(=O)c2ccccc2o1 | 85% |
| Cc1cc2cc(CNC(=O)c3ccc([N+](=O)[O-])cc3)ccc2[nH]1 | 10% |
| Cc1c(C)n2c(SCC(=O)Nc3cccc(Cl)c3)nnc2[nH]c1=O | 2% |
| COc1ccccc1NC(=O)CSc1ccc2nnc(-c3ccc(C)cc3)n2n1 | 3% |
| Cc1nnc(SCCCn2c(N3CCOCC3)nc3c2c(=O)[nH]c(=O)n3C)s1 | 0% |
| Cc1cn2c3c(=O)n(CC(=O)OCc4ccccc4)c(=O)n(C)c3nc2n1Cc1ccccc1 | -7% |
| O=C(CSc1ccc2nnc(-c3ccc(Cl)cc3)n2n1)Nc1ccc(F)cc1 | 4% |
| O=C(CCc1ccccc1)Nc1nc2c(s1)CCCC2 | 78% |
| NC(=O)c1nc(-c2ccccc2F)nc2c1[nH]c(=O)n2-c1ccc(F)cc1 | -9% |
| CCCc1nnc(NC(=O)CC2CCS(=O)(=O)C2)s1 (stereo not drawn) | -5% |
| CN(Cc1ccccc1)S(=O)(=O)c1ccc(C(=O)Nc2nc(-c3ccc4c(c3)CCCC4)cs2)cc1 | -2% |
| Cc1cc(C)cc(-n2c(SCC(=O)Nc3ccc(OC(F)(F)F)cc3)nc3c([nH]c4ccccc43)c2=O)c1 | 14% |
| O=C(Nc1ccc(F)c(F)c1)c1cnc2n(c1=O)CCS2 | 5% |

Some of these compounds in order of count of non-hydrogen atoms, low to high:
| Molecule | Mtb H37Rv |
| --- | --- |
| COc1ccccc1NC(=O)CSc1ccc2nnc(-c3ccc(C)cc3)n2n1 | 3% |
| CCOC(=O)c1nn(-c2ccc(F)cc2)c(=O)c2c(NC(=O)c3cc([N+](=O)[O-])ccc3Cl)scc12 | 4% |
| Cc1cc(C)cc(NC(=O)CSc2nc3c([nH]c4ccccc43)c(=O)n2-c2cccc(C(F)(F)F)c2)c1 | 18% |
